Beta2AR agonist = activates human beta-2 adrenergic receptor causing internalization. response, % (test concentration not listed). Am2.2-beta2AR cells, FAP receptor internalization, flow cytometry; reference of the scale not given here. actives 0.43% (n = 340,000). AID 504454. P07550;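 active = response above a set limit, near 3 SD of response in nonfluorescent compounds, cut at about 42% in these data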;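 note: stock transfer was 100 nL into about 11 µL; a reference agonist was the positive control; negative values mostly stem from fluorescent compounds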
Target sequence (P07550 whole entry, looked up): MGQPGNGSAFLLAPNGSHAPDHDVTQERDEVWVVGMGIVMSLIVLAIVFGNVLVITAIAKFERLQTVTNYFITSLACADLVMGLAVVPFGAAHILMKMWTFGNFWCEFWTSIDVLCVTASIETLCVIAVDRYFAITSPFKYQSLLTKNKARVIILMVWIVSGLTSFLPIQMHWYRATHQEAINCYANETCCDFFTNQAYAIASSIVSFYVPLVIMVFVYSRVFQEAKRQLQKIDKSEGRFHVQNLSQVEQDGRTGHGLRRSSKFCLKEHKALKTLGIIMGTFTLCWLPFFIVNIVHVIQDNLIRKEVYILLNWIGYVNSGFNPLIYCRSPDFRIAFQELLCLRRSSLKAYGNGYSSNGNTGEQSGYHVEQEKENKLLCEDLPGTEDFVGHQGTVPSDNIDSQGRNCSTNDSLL
FGF22 binding = FGF22 (human) thermal shift binding. recombinant FGF22 thermal shift, SYPRO orange fluorescence; percent of sucrose octasulfate shift, DMSO zero. actives 1.5% (n = 340,000). calls only at 9.99 µM. Q9HCT0;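 active = melting point raised past a set limit in the mean and every replicate; three in four hits are not shown here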
Target sequence (Q9HCT0 whole entry, looked up): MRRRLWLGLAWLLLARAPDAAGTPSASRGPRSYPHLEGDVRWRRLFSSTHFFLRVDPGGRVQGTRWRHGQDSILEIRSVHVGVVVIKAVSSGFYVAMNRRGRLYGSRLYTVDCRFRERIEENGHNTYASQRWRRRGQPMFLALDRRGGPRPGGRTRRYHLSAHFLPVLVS
Ecoli growth = inhibitors of Escherichia coli growth; OD600, 23 h; hits give low values; OD600 absorbance (no concentration beside the values); actives 0.21% (n = 330,000); AID 1053175;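 active = OD600 absorbance below the run mean of sample wells minus 3.6 SD, in any replicate, cut at about 0.56 in these data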;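 note: stock transfer was 300 nL into about 60 µL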
UCH37 inh = human UCH37 deubiquitinating enzyme inhibition | actives 0.33% (n = 330,000) | purified proteasome/UCH37, Ub-AMC cleavage fluorescence | Q9Y5K5 | inhibition, % (test concentration not listed) | AID 588478;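 active = mean of two replicates above 20%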;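 note: 0% = compound-free wells with enzyme and 100% = wells lacking proteasome; stock transfer was 100 nL into about 20 µL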
Target sequence (Q9Y5K5 whole entry, looked up): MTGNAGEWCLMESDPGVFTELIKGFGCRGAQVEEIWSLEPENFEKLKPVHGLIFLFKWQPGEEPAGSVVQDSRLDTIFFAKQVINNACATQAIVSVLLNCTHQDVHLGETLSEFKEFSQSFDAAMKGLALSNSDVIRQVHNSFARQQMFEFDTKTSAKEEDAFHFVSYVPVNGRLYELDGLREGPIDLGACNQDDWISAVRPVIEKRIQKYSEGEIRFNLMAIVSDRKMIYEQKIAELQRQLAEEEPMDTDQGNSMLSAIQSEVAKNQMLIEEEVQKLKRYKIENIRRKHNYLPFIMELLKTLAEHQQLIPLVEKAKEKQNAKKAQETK
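Signal – fluorescence, ex 355 nm, em 460 nm · System – Proteasome-bound UCH37 · Input – 0.15 nM proteasome as dispensed · Timing – 30 min preincubation with enzyme, 25 min cleavage at room temperature · Read-out basis – percent inhibition of cleavage signal versus uninhibited and no-proteasome wells · Medium – Tris-HCl pH 7.4 with ATP-MgCl2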
ALR inh = inhibitors of human sulfhydryl oxidase ALR; AID 485317; actives 3.8% (n = 290,000); inhibition, % (test concentration not listed); P55789; purified ALR, DTT oxidation, H2O2 HRP-luminol luminescence;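 active = mean and each replicate at 75% or more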;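 note: stock transfer was 7.5 nL into about 7.5 µL; 0% = neutral wells and 100% = wells with inactivated enzyme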
HNF4A DNA FP = change in binding of human HNF4 alpha to DNA; HNF4a-FITC DNA binding, fluorescence polarization, 1 h; activity change, % at 10 µM; actives 0.3% (n = 360,000); AID 1224865; in the data active = activity change above about 30%, passing the limit was not always enough;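 note: controls were the assay level and a saturating level of protein; the project sought stronger binding though the title names inhibitors; some compounds called inactive have numbers as strong as hits; positive values seem to mean higher polarization but the record does not say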
rRNA inh HTS = inhibitors of bacterial rRNA selective over humanized ribosomes; E. coli WT GFP vs humanized-ribosome RFP mutants, fluorescence, 24 h; hits give low values; DMSO median 0, no signal -100; AID 720706; actives 1.6% (n = 350,000); GFP signal change (wild-type ribosome), % (no concentration beside the values);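 active = significant combined selectivity score with lowered wild-type GFP, culture density cut under 30%, mutant RFP and density less affected; inactive = any of these conditions unmet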; note: one replicate is shown; some compounds called inactive have numbers as strong as hits
rRNA inh HTS OD600 = recorded beside rRNA inh HTS, whose call it bears; OD600 change, %; measured here: OD600 growth;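 optical density of the mix in the first replicate; 0 = DMSO median and -100 = no signal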
rRNA inh HTS RFP = also measured in rRNA inh HTS; calls as there; RFP signal change, %; measured here: RFP humanized mutant strains;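 first replicate; 0 = DMSO median and -100 = no signal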
* marks the source's active call; other numbers are inactive results; i = inactive; / = no result given. These rows are one share of the data. The share of hits here may be higher or lower than overall.

Compound	Beta2AR agonist	FGF22 binding	Ecoli growth	UCH37 inh	ALR inh	HNF4A DNA FP	rRNA inh HTS	rRNA inh HTS OD600	rRNA inh HTS RFP
O[C@H]1COC2C1OC[C@@H]2O (stereo partly specified)	-1	i	/	1.8	/	5.7	/	/	/
COc1ccc(CCNC(=O)C2CCN(S(=O)(=O)N3CCOCC3)CC2)cc1OC	-6	/	0.75	3.5	-4	-2.1	/	/	/
COc1ccc(-c2nnsc2N2C(=O)c3ccccc3C2=O)cc1	-5	i	0.69	4.4	-3	-1.5	10	2	1.5
COC(=O)CC1=C(C(=O)OC)[C@@H](c2ccccc2[N+](=O)[O-])C(C#N)=C(N)O1	15	i	0.69	-0.7	-1	-5.3	18	1	-0.7
CCCCn1c(SCC(=O)Nc2nnc(C)s2)nnc1-c1ccncc1	0	i	0.7	1.4	-5	-0.6	15	19	5.6
CCCCN(C)C(=O)c1cc2cc3ccc(OC)cc3nc2o1	4	i	0.64	-461	-3	3.7	-19	-11	-0.8
CCOc1ccc(N2CC(C(=O)Nc3ccc(OC)c(S(=O)(=O)N4CCCCC4)c3)CC2=O)cc1 (stereo unspecified)	4	i	0.68	-1.2	-10	-1.4	-10	-5	5.5
Cc1nc(Nc2ccccc2)c2oc3ccc(Cl)cc3c2n1	0	i	0.72	-176	-4	2.1	10	29	-0.2
COc1ccccc1NS(=O)(=O)c1cccc(C(=O)NCC(c2cccs2)N2CCOCC2)c1 (stereo unspecified)	-7	i	0.64	2.1	-1	1.3	-8	9	5.9
Cc1ccc(NC(=O)CCC(=O)NNC(=O)c2ccco2)cc1C	-8	/	0.69	2.8	1	-1.6	/	/	/
O=S(=O)(NC1CCCCC1NCc1ccco1)c1ccccc1 (stereo unspecified)	5	/	0.71	3.2	-1	2.8	7	5	-3.4
O=C(O)Cn1nc2ccccc2n1	-3	/	0.68	5.2	-3	-3.0	/	/	/
CN(C)S(=O)(=O)c1cccc(NC(=O)c2ccc3nccnc3c2)c1	2	i	0.68	4.9	-15	0.3	-6	-8	-0.5
COc1ccc(OC)c(C2=CC(=O)C[C@H](c3ccc(F)cc3)C2)c1	/	i	/	/	/	-12	-7	-18	-5.8
CCc1ccc(OCC(=O)N2CC(C(N)=O)Oc3ccccc32)cc1 (stereo unspecified)	-3	i	0.7	3.8	-2	1.8	4	9	3.2
O=C(CCN1C(=O)/C(=C\c2ccccc2F)SC1=S)Nc1ccc(C(=O)O)c(O)c1	-8	/	/	/	28	-0.3	-22	-20	0.8
O=C(NCCCCCCNC(=O)OC1CCS(=O)(=O)C1)OC1CCS(=O)(=O)C1 (stereo unspecified)	-3	/	0.72	0.0	-2	3.9	/	/	/
C(=N\N1CCN(C2c3ccccc3-c3ccccc32)CC1)/c1cccs1	7	/	/	/	-1	-0.1	/	/	/
N#Cc1ccccc1OCC(=O)NCC(c1ccc(F)cc1)N1CCOCC1 (stereo unspecified)	-7	i	0.66	0.5	/	0.0	/	/	/
CCOC(=O)Cc1nc2ccccc2n(CC#N)c1=O	10	i	0.67	-18	-20	6.5	23	21	4.5
COc1ccc(-c2ccc3oc(-c4ccc(OC)cc4)c(-c4cc(OC)c(OC)c(OC)c4)c3c2)cc1	11	i	0.74	-28	-1	-0.5	4	2	-3.3
Cc1nn(C)c(C(=O)N/N=C/c2ccc(Br)cc2)c1Cl	-6	i	/	/	0	-0.5	12	-3	-2.8
COc1ccc(C(C(=O)NC2CCCCC2)N(C(=O)c2ccccn2)c2cccnc2)cc1 (stereo unspecified)	-2	i	0.72	3.4	-5	1.2	15	10	-2.0
CC1CCCC(NC(=O)Cn2cc(Br)ccc2=O)C1C (stereo unspecified)	-8	i	0.66	2.9	/	2.8	16	11	1.4
COc1ccc(C)cc1NC(=O)CSc1nnc(CC(=O)Nc2cccc(C(F)(F)F)c2)n1C	8	/	0.74	-1.0	/	-2.7	/	/	/

Copied from the list.
O[C@H]1COC2C1OC[C@@H]2O (stereo partly specified) in Beta2AR agonist is listed with -1
CN(C)S(=O)(=O)c1cccc(NC(=O)c2ccc3nccnc3c2)c1 in rRNA inh HTS RFP is listed with -0.5
O=C(O)Cn1nc2ccccc2n1 in HNF4A DNA FP is listed with -3.0

The main list resumes; the 2 compounds before the break are reprinted first.
Compound	Beta2AR agonist	FGF22 binding	Ecoli growth	UCH37 inh	ALR inh	HNF4A DNA FP	rRNA inh HTS	rRNA inh HTS OD600	rRNA inh HTS RFP
CC1CCCC(NC(=O)Cn2cc(Br)ccc2=O)C1C (stereo unspecified)	-8	i	0.66	2.9	/	2.8	16	11	1.4
COc1ccc(C)cc1NC(=O)CSc1nnc(CC(=O)Nc2cccc(C(F)(F)F)c2)n1C	8	/	0.74	-1.0	/	-2.7	/	/	/
CCOC(=O)/C(=C\C=C1/Sc2cc(OCC)c(OCC)cc2N1CC)C(C)=O	-6	/	0.66	29*	93*	-90	/	/	/
COc1ccccc1CNC(=O)C1CCCN(S(=O)(=O)c2cccc3nsnc23)C1 (stereo unspecified)	2	i	0.64	2.2	-8	-0.3	9	10	2.4
COc1ccc(/C=N/NC(=O)c2cc3c(OC)ccc(OC)c3[nH]2)cc1O	22	i	/	/	66	-0.2	-5	8	-5.8
O=C(Nc1cccc(NC(=O)c2ccccc2)n1)c1ccccc1	-8	i	0.65	4.3	-13	3.0	-21	-28	-1.2
CCOc1ccccc1N	-2	i	0.62	1.8	-9	2.9	-1	-1	-0.1
CCn1c(SCC(N)=O)nc2sc3c(c2c1=O)CCN(C)C3	11	i	0.69	-57	40	-3.0	-1	-2	-0.5
O=C(N/N=C/c1ccncc1)c1ccc(OCc2ccccc2)cc1	19	i	/	/	-6	-1.2	-3	5	-1.2
COc1ccc(C=NNc2ccc([N+](=O)[O-])cn2)cc1	-3	i	0.68	3.8	/	72*	8	7	3.4
CCn1cc(/C=C(\NC(=O)c2ccccc2F)C(=O)N2CCOCC2)c2ccccc21	-5	/	0.66	10.0	42	-4.0	/	/	/
COc1ccc(N2C(=NC(=O)CCCc3ccccc3)SC3CS(=O)(=O)CC32)cc1 (stereo unspecified)	6	i	0.66	1.4	1	2.6	2	1	-2.7
COc1ccc(-n2nc3c(c2NC(=O)c2ccccc2S(=O)(=O)C(F)F)CS(=O)(=O)C3)cc1	-1	i	0.72	4.7	-15	1.8	-1	7	1.1
CC(C)c1ccc(NC(=O)COC(=O)c2cc(=O)[nH]c3ccccc23)cc1	0	i	0.66	1.0	0	2.0	8	10	-0.3
CCOC(=O)Cc1cc(=O)n2[nH]cc(-c3cccc(Br)c3)c2n1	4	i	0.66	-112	34	0.4	-45	-74	-3.6
CC(=O)Nc1c(O)nc(SCC(=O)Nc2nnc(CC(C)C)s2)[nH]c1=O	2	/	0.72	2.4	85*	-1.4	/	/	/
COc1ccc(CC(=O)N/N=C/c2ccc(C)s2)cc1	0	i	/	/	9	3.8	16	1	-1.7
O=C(Cn1nc(C(=O)O)c2ccccc2c1=O)Nc1ccc(Cl)c(S(=O)(=O)N2CCOCC2)c1	11	i	0.66	2.0	-8	5.3	29	23	7.2
COc1ccc(C2Sc3nncn3N2Cc2ccc(C#N)cc2)cc1 (stereo unspecified)	3	/	0.7	0.0	-6	-1.5	/	/	/
Cc1cc(N)n(-c2ccc(S(=O)(=O)N3CCCC3)cc2[N+](=O)[O-])n1	-3	i	0.7	3.5	-1	2.2	-2	0	-1.0
CC(=O)Nc1ccc(S(=O)(=O)N(C)CC(=O)OCC(=O)NNC(=O)c2ccccc2F)cc1	-3	i	0.69	-0.4	-1	-2.8	3	16	-0.3
CC(=O)Nc1ccc2c(c1)Cc1c-2cc(Br)c(N)c1Br	-4	i	0.67	1.4	/	-1.0	-1	1	-0.3
O=C(NC1CC1)c1cc2cc3ccccc3nc2s1	-10	i	0.7	-1.0	-6	6.0	-21*	-15*	-3.2*
CC1CC1C(=O)Nc1ccc(S(=O)(=O)N2CCCCC2)cc1 (stereo unspecified)	-2	i	0.69	3.8	/	0.4	5	3	0.0
CCCC(C(=O)NC1CCCC1)N(Cc1ccc2c(c1)OCO2)C(=O)c1snc(C(N)=O)c1N (stereo unspecified)	2	/	0.67	-16	/	2.3	/	/	/
CCc1cc(=O)oc2cc(OC(C)C(=O)NCC(O)c3ccccc3)c(Cl)cc12 (stereo unspecified)	-14	i	/	/	-1	1.0	-5	-2	-0.9
O=C(O)CCNS(=O)(=O)c1ccc2c(c1)CCCC2	6	i	0.72	2.7	-3	0.3	2	-8	-0.1

Following part.
Order of values: Beta2AR agonist | FGF22 binding | Ecoli growth | UCH37 inh | ALR inh | HNF4A DNA FP | rRNA inh HTS | rRNA inh HTS OD600 | rRNA inh HTS RFP
> O=C(Nc1ccc(F)c(F)c1)c1ccc2c(c1)OCO2
→ / | / | 0.67 | 2.0 | -2 | 0.3 | / | / | /
> COc1cccc(-n2nnc3c(=O)n(Cc4ccccc4F)cnc32)c1
→ -1 | / | 0.68 | -0.9 | -2 | 4.9 | / | / | /
> Cc1cc(CNC(=O)CCc2nnc(CCCc3ccccc3)o2)nn1C
→ 4 | i | 0.66 | -1.2 | -7 | 0.8 | 10 | 14 | 1.5
> CCn1c(C)cc(/C=C2\NC(=O)N(CC(=O)Nc3cccc(C)c3)C2=O)c1C
→ 15 | / | 0.74 | -1.9 | -2 | 2.3 | / | / | /
> COc1ccccc1NC(=O)Cn1nnc(C(=O)NCc2cccs2)c1N
→ 28 | i | 0.71 | 4.3 | 1 | 12 | 3 | 0 | 0.8
> O=C(c1ccc([N+](=O)[O-])cc1)N(Cc1ccc(Cl)cc1)N1C(=O)CCCC1=O
→ 7 | / | 0.67 | 2.9 | 0 | -2.3 | -1 | 11 | -2.7
> Cc1[nH]n(-c2ccccc2)c(=O)c1/C=N/n1c(C)nc2ccccc2c1=O
→ -4 | / | / | / | 4 | 1.4 | / | / | /

Bioassay records as filed in PubChem.
